From PubChem
UCH37 DUB inh – blocks the human deubiquitinase UCH37; Q9Y5K5; purified proteasome/UCH37, Ub-AMC cleavage fluorescence; inhibition, % (concentration not given with the values); 330,000 compounds, 0.33% hits; AID 588478;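 active = mean of two replicates above 20%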;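 note: 0% = compound-free wells with enzyme and 100% = wells lacking proteasome; stock transfer was 100 nL into about 20 µL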
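Material: human UCH37 enzyme supplied as purified proteasome complex. Measure: % inhibition of Ub-AMC cleavage fluorescence. Medium: pH 7.4 Tris-HCl (50 mM) with ovalbumin, ATP-MgCl2, DTT. Times: 30 min preincubation with enzyme, 25 min cleavage at room temperature. Detection: AMC fluorescence intensity at 355/460 nm.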
E coli growth – E. coli growth inhibition; Escherichia coli growth, OD600, 23 h; active compounds read low; OD600 absorbance (test concentration not listed); 330,000 compounds, 0.21% hits;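 active = OD600 absorbance below the run mean of sample wells minus 3.6 SD, in any replicate, cut at about 0.56 in these data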;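 note: stock transfer was 300 nL into about 60 µL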
HNF4A DNA FP – change in binding of human HNF4 alpha to DNA; P41235; HNF4a-FITC DNA binding, fluorescence polarization, 1 h; activity change, % at 10 µM; 360,000 compounds, 0.3% hits; in the data active = activity change above about 30%, passing the limit was not always enough;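 note: controls were the assay level and a saturating level of protein; the project sought stronger binding though the title names inhibitors; some compounds called inactive have numbers as strong as hits; positive values seem to mean higher polarization but the record does not say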
Beta2AR agonist – activates human beta-2 adrenergic receptor causing internalization; Am2.2-beta2AR cells, FAP receptor internalization, flow cytometry; reference of the scale not given here; response, % (no concentration beside the values); 340,000 compounds, 0.43% hits; AID 504454;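 active = response above a set limit, near 3 SD of response in nonfluorescent compounds, cut at about 42% in these data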;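 note: stock transfer was 100 nL into about 11 µL; a reference agonist was the positive control; negative values mostly stem from fluorescent compounds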
Target sequence (P07550 whole entry, looked up): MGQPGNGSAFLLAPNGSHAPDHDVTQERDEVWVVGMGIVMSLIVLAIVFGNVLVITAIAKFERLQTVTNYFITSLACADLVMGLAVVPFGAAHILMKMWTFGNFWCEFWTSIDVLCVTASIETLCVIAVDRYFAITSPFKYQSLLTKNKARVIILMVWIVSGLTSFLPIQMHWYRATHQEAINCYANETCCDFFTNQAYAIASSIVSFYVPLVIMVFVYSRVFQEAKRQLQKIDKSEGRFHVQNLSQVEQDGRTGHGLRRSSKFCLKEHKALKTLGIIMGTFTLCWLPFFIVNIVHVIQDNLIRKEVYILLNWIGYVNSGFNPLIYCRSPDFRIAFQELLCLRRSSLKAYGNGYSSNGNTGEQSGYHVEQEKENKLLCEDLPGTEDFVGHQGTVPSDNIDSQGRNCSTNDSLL
rRNA inh HTS – inhibits bacterial ribosomal RNA function over humanized ribosomes; E. coli WT GFP vs humanized-ribosome RFP mutants, fluorescence, 24 h; active compounds read low; DMSO median 0, no signal -100; GFP signal change (wild-type ribosome), % (concentration not given with the values); 350,000 compounds, 1.6% hits; AID 720706;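 active = significant combined selectivity score with lowered wild-type GFP, culture density cut under 30%, mutant RFP and density less affected; inactive = any of these conditions unmet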; note: one replicate is shown; some compounds called inactive have numbers as strong as hits
ALR inh – human ALR oxidase inhibition via reduced H2O2 | P55789 | purified ALR, DTT oxidation, H2O2 HRP-luminol luminescence | inhibition, % (no concentration beside the values) | 290,000 compounds, 3.8% hits | AID 485317;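 active = mean and each replicate at 75% or more; inconclusive = only one of the two met; inactive = neither met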;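 note: stock transfer was 7.5 nL into about 7.5 µL; 0% = neutral wells and 100% = wells with inactivated enzyme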
Target sequence (P55789 whole entry, looked up): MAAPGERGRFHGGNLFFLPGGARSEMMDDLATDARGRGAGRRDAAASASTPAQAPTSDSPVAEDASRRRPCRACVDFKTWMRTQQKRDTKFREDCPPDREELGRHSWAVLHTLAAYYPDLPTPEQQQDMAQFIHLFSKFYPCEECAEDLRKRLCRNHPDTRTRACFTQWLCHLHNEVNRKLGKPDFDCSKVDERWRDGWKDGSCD
FGF22 binding – binders of recombinant human FGF22 by thermal shift | SYPRO orange fluorescence; percent of sucrose octasulfate shift, DMSO zero | Q9HCT0 | 340,000 compounds, 1.5% hits | calls only at 9.99 µM | AID 651658;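 active = melting point raised past a set limit in the mean and every replicate; inconclusive = no clear call; three in four hits are not shown here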
Target sequence (Q9HCT0 whole entry, looked up): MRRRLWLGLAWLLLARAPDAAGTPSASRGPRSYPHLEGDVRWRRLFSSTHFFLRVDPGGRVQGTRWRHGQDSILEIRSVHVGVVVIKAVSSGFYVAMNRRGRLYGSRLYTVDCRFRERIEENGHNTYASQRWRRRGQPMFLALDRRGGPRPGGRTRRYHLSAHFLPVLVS
rRNA inh HTS OD600 – also measured in rRNA inh HTS; calls as there; OD600 change, %; measured here: OD600 growth;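 optical density of the mix in the first replicate; 0 = DMSO median and -100 = no signal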
rRNA inh HTS RFP – recorded beside rRNA inh HTS, whose call it bears; RFP signal change, %; measured here: RFP humanized mutant strains;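 first replicate; 0 = DMSO median and -100 = no signal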
The depositor's hits bear a star; i = inactive; u = inconclusive; x = not tested or not shown; & = joins results of further samples.

The line under a structure holds: UCH37 DUB inh	E coli growth	HNF4A DNA FP	Beta2AR agonist	rRNA inh HTS	rRNA inh HTS OD600	rRNA inh HTS RFP	ALR inh	FGF22 binding
> O=C(O)C1=CC[C@@H](c2ccc(Cl)cc2)N(S(=O)(=O)c2ccc(Cl)cc2)[C@H]1c1ccccc1
  x	x	2.3	11	-33	-32	-11	-2	i
> COc1cc(CC(=O)NCC2COc3ccccc3O2)cc(OC)c1OC (stereo unspecified)
  5.8	0.72	1.6	-2	10	3	-4.4	-31	x
> Oc1ccc(Br)cc1/C=N/N1CCN(Cc2cccc3ccccc23)CC1
  x	x	-1.5	0	8	1	-5.0	-2	i
> O=C(NCC1CCCO1)c1cc2cc(Cl)ccc2[nH]1 (stereo unspecified)
  1.9	0.59	0.3	4	-5	-5	-1.8	7	i
> COc1ccc(C(=O)c2cnc[nH]2)cc1
  1.3	0.66	4.1	0	3	9	-0.2	-6	i
> CCN1CCN(C(=S)NC(=O)/C=C/c2cccs2)CC1
  7.4	0.64	-0.6	-14	13	8	8.2	-1	i
> COc1ccc(N(CC(=O)Nc2cccc(N(C)S(C)(=O)=O)c2)S(=O)(=O)c2ccccc2)cc1Cl
  3.8	0.72	-4.2	2	-14	-10	-1.5	-25	x
> Cc1cn([C@H]2C[C@H](O)[C@@H](CCC(=O)NCc3ccc(N(C)C)cc3)O2)c(=O)[nH]c1=O
  x	x	2.5	x	10	16	3.1	x	i
> CN1C(C(=O)N2CCc3ccccc3C2)=CC(c2ccc(F)cc2)=NS1(=O)=O
  1.4	0.71	2.5	8	-6	-21	2.1	3	i
> COC(=O)C/C(C)=N/Nc1ccc(S(=O)(=O)N2CCCC2)cc1[N+](=O)[O-]
  x	x	-0.4	-2	x	x	x	2	x
> Cc1ccc(S(=O)(=O)N(C)CC(=O)OCC(=O)c2ccc3c(c2)NC(=O)CO3)cc1
  1.4	0.65	6.3	1	-2	0	6.6	-1	i
> Cc1c(OC(C)C(=O)O)ccc2c(-c3ccccc3)cc(=O)oc12 (stereo unspecified)
  -22	0.67	-1.8	2	1	-11	2.1	-9	i
> COc1ccc(S(=O)(=O)N(C)C[C@H]2OCc3cn(nn3)CCCC(=O)N([C@H](C)CO)C[C@@H]2C)cc1
  x	x	0.7	x	12&0	4&4	8.2&-2.3	x	i
> Nc1ncc2c(n1)-c1cc(Cl)ccc1SC2
  2.0	0.7	8.1	0	4	28	7.0	5	i
> COc1ccc(C(OC(=O)c2ccco2)C(=O)NC2CCCC2)cc1OC (stereo unspecified)
  3.6	0.67	-0.2	10	x	x	x	-2	i

Single records (already shown). Values in the order: UCH37 DUB inh, E coli growth, HNF4A DNA FP, Beta2AR agonist, rRNA inh HTS, rRNA inh HTS OD600, rRNA inh HTS RFP, ALR inh, FGF22 binding
Listed for COc1ccc(C(OC(=O)c2ccco2)C(=O)NC2CCCC2)cc1OC (stereo unspecified) : 3.6, 0.67, -0.2, 10, x, x, x, -2, i
Listed for CCN1CCN(C(=S)NC(=O)/C=C/c2cccs2)CC1 : 7.4, 0.64, -0.6, -14, 13, 8, 8.2, -1, i

Later entries
The line under a structure holds: UCH37 DUB inh	E coli growth	HNF4A DNA FP	Beta2AR agonist	rRNA inh HTS	rRNA inh HTS OD600	rRNA inh HTS RFP	ALR inh	FGF22 binding
> CCOC(=O)C(C)c1n[nH]c(=O)c2ccccc12 (stereo unspecified)
  -0.5	0.71	-1.3	-6	x	x	x	-23	x
> Cc1ccc2nc(CSc3nnc(Nc4ccccc4F)s3)cc(=O)n2c1
  -7.0	0.73	-7.8	9	-2	12	0.2	0	i
> Cc1ccc(NC(=O)CN(C)C(=O)c2cc3c(s2)CCCCC3)cc1
  3.5	0.72	0.0	4	-3	3	-0.9	-2	i
> CCOC(=O)C1=C(COC(=O)c2ccc([N+](=O)[O-])s2)NC(=O)NC1C (stereo unspecified)
  83*	0.61	-5.3	0	-6	2	48	-12	i
> CC(C)C[C@@H]1COc2cccc(N3CCC[C@@H]3CO)c2S(=O)(=O)N1
  x	x	-3.8	x	-2	-4	-3.7	x	i
> COC(=O)c1ccccc1-c1ccc(/C=N/NC(=O)c2cc3ccccc3o2)o1
  x	x	1.5	8	x	x	x	1	x
> COc1ccccc1-c1sc2cc3c(cc2c1-c1ccc(OCCN2CCOCC2)cc1)OCO3
  -27	0.72	0.8	5	x	x	x	x	x
> Cc1ccc(C)c(NC(=S)N2C3CCCC2CC(NC(=O)C2CC2)C3)c1 (stereo unspecified)
  2.8	0.69	2.4	0	1	-6	-3.3	-10	i
> CCN(C(=O)CN1CCC(C)CC1)c1c(N)n(Cc2ccccc2)c(=O)[nH]c1=O
  1.1	0.65	4.4	2	1	8	-4.1	x	i
> CN(C(=O)CN1CCCCCC1)c1c(N)n(Cc2ccccc2)c(=O)[nH]c1=O
  -0.9	0.72	3.4	8	5	8	1.4	x	i
> CC1CCC/C(=N\NC(=S)NCc2ccccc2)C1 (stereo unspecified)
  x	x	2.7	-6	x	x	x	-3	x
> C/C(=N\NC(=O)c1cccc(Br)c1)c1cccc(NC(=O)c2ccc(C)o2)c1
  x	x	0.9	30	x	x	x	-3	x
> CCOC(=O)C1(Cc2cccc(Cl)c2)CCCN(C(=O)c2ccnn2C)C1 (stereo unspecified)
  -1.0	0.69	-1.3	3	0	-3	-1.5	1	i
> COc1ccc(NS(=O)(=O)c2cccc(C(=O)NCc3ccccn3)c2)cc1
  -4.0	0.68	5.9	-3	2	1	3.9	-14	i
> CC(=O)Nc1ccc(S(=O)(=O)N2CCC(C(=O)c3ccc(Cl)cc3)CC2)cc1
  1.8	0.6	-1.7	-16	3	-16	7.8	-4	i
> Cn1cnnc1SCC(=O)c1ccco1
  0.6	0.71	-2.5	1	10	7	-0.8	12	i
> Cc1cc(/C=N/NC(=O)c2cc3ccccc3o2)c(C)n1C
  x	x	2.8	6	-10	-13	3.7	35	i
> O=[N+]([O-])c1cccc(-c2ccc(C(=S)N3CCN(c4ccccc4)CC3)o2)c1
  7.5	0.68	-2.6	-5	-3	10	39	-8	i
> CSc1ccc(C2C(C#N)=C(N)N(c3ccccc3)C3=C2C(=O)CCC3)cc1 (stereo unspecified)
  2.8	0.73	1.7	1	x	x	x	-5	x
> COc1cc(/C=N/N(C)S(=O)(=O)c2ccc(C)cc2)cc([N+](=O)[O-])c1O
  x	x	-0.1	5	6	-2	-2.8	21	i
> Cc1ccc(-c2c(=O)n(O)c3ccccc3[n+]2[O-])cc1
  0.8	0.65	0.3	-2	-17*	-1.9*	3.3*	-22	i
> O=C(NC1CCCC1)C1C(c2ccc(C(F)(F)F)cc2)=Nc2ccccc2N1C(=O)c1cccc2ccccc12 (stereo unspecified)
  x	x	4.9	x	0	15	3.4	x	i
> Cc1cc(C)c(S(=O)(=O)NCC2CCC(C(=O)NCc3ccccn3)CC2)c(C)c1 (stereo unspecified)
  1.2	0.72	-3.5	-1	18	0	3.7	-62	i
> O=C(NC1CCCCC1)c1noc2c1CCCCC2
  0.8	0.74	3.7	-6	x	x	x	1	x
> CC1CCN(S(=O)(=O)c2cccc(C(=O)Oc3ccc([N+](=O)[O-])cc3)c2)CC1
  1.7	0.68	2.2	-1	x	x	x	5	x
> Cc1ccc(-n2c(C)cc(C(=O)CSc3n[nH]c(N)n3)c2C)cc1
  4.5	0.66	1.6	-2	x	x	x	21	x
> CNC(=O)c1ccsc1NC(=O)CN1C(=O)CCC1=O
  3.0	0.7	-4.9	2	0	-9	-1.2	u	i
> c1ccc(-c2sc3ccccc3c2-c2ccc(OCCN3CCCCC3)cc2)cc1
  3.0	0.65	1.1	0	-17*	3.1*	6.7*	0	i
> O=C(COc1cccc(C(F)(F)F)c1)NNC(=O)c1ccc(=O)[nH]c1
  0.6	0.7	-3.3	-1	2	11	-4.5	1	i
> CCN1CCN(c2ccc(S(=O)(=O)N3CCCCC3)cc2NC(=O)c2cccc(C(F)(F)F)c2)CC1
  5.7	0.76	2.7	14	-1	-8	14	x	i
> Cc1nc(CC(C)C)cc(C(=O)N2CCCC(Nc3ccc(C)c(C)c3)C2)n1 (stereo unspecified)
  1.4	0.74	4.4	-6	2	8	0.3	u	i
> CCn1ncc(C2=NOC(C(=O)N3CCN(c4ccccc4)CC3)C2)c1C (stereo unspecified)
  -0.1	0.73	2.8	-12	5	8	24	64	i
> COc1ccccc1NC(=O)CNC(=O)c1ccc(F)cc1
  -0.8	0.7	6.5	-2	x	x	x	2	x
> CC(C)c1nnc(NC(=O)CCC(=O)NCc2ccccc2Cl)s1
  0.7	0.67	-1.9	7	8	6	0.5	3	i
> COCc1cc(C)n(CC(=O)Nc2ccccc2OC)c(=O)c1C#N
  -2.6	0.7	-1.1	4	x	x	x	-1	x
> CCCn1nnc(NC(=O)c2ccc(OC)cc2)n1
  -0.5	0.71	4.7	-2	x	x	x	-8	x
> COc1cccc(C(O)c2nc(-c3ccc4ccccc4c3)cs2)c1 (stereo unspecified)
  x	x	0.9	x	-22	-59	13	x	i
> CN(C)Cc1ccc(CNC(=O)COc2ccc3ccccc3c2)cc1
  2.5	0.67	1.8	-1	6	8	0.5	-60	i
> Cc1cc(OCC(=O)OCC(=O)NC2CCCCC2C)ccc1Cl (stereo unspecified)
  -1.2	0.69	3.3	17	6	7	-0.4	-1	i
> CC(C)CC(=O)Nc1ccnn1C1CCN(C(=O)c2ccc(F)cc2Cl)CC1
  0.3	0.68	0.1	-5	0	1	-1.1	-1	i
> COc1ccc(CCNC(=O)C2CCC(CNc3c(N4CCCC4)c(=O)c3=O)CC2)cc1OC (stereo unspecified)
  0.7	0.65	2.4	5	x	x	x	-11	x
> Cc1cc(C)cc(N2CC(C)Cn3c2nc2c3c(=O)[nH]c(=O)n2C)c1 (stereo unspecified)
  6.0	0.66	-0.3	10	5	7	-0.8	1	i
> CCCCCCCCCCOC(=O)Cn1c(COc2ccccc2)[n+](C)c2ccccc21
  x	x	7.3	8	-58	-78	-12	-12	i
> O=c1c2c(nc3cc(-c4ccccc4)[nH]n13)CCS2
  -14	0.74	0.5	7	x	x	x	-17	x
> CC(NC(=O)c1cc(-c2ccccc2)on1)c1ccccc1 (stereo unspecified)
  6.3	0.69	2.8	4	x	x	x	2	x
> COc1ccc(NC(=O)CCC(=O)c2cccs2)cc1S(=O)(=O)Nc1ccc(Cl)cc1
  1.9	0.73	-1.6	3	-19*	-11*	6.1*	-8	i
> Cc1ccc(S(=O)(=O)N2CCCCC2)cc1NS(=O)(=O)c1ccccc1F
  4.8	0.7	9.8	-1	-21	-46	-7.0	0	i
> COc1ccc(C(CCN2CCOCC2)c2c(OC)cc(OC)c3c(-c4ccccc4)cc(=O)oc23)cc1 (stereo unspecified)
  -10	0.69	-2.5	8	-46	-65	-7.8	x	i
> CCC(CC)C(=O)NCc1ccc(Cl)cc1
  -0.7	0.67	2.4	-1	-6	-4	-3.8	-2	i
> Cc1cccc(NC(=S)NC(=O)C2CC2)c1
  x	x	1.8	-8	x	x	x	-7	x
> CC(C)COC(=O)COc1cc(Cl)c(Cl)cc1Cl
  3.4	0.65	x	x	0	3	-2.0	4	i
> COc1ccc(N(CC(=O)Nc2ccccc2F)S(=O)(=O)c2ccc(C)c([N+](=O)[O-])c2)cc1
  5.4	0.68	-0.7	-14	1	-8	-0.8	-19	i
> Cc1oc(=O)c(NC(=O)c2ccc(Cl)cc2)cc1C(=O)c1ccccc1
  -14	0.65	2.2	2	x	x	x	u	x

An excerpt; the hit share may differ from the screen's.
